Assay outcomes from PubChem BioAssay.
Mtb hypoxia rep: inhibitors of hypoxia-regulated fluorescent reporter in Mycobacterium tuberculosis | M. tuberculosis hypoxia-regulated fluorescent reporter, fluorescence | fluorescence inhibition, % (no concentration beside the values) | 300,000 tested, 0.1% active | AID 1159583;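 active = 35 to 45% if threefold the growth effect, above 45% if 1.5-fold the growth effect; inactive = the rest, general growth blockers included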;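 also: wells of about 50 µL received 100 nL stock; 0% = vehicle wells and 100% = reference inhibitor wells; whole bacteria with a GFP reporter of the hypoxia response; strong numbers were not always called active; many hits fall short of the cut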
PrP UTR inh: inhibition of PrP 5' UTR reporter expression; cell-based PrP 5' UTR mRNA reporter, plate reader; inhibition, % (no concentration beside the values); 340,000 tested, 0.35% active; AID 488862;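 active = every replicate at 50% or more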;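 also: 0 = median of the neutral control wells; tested in H4 reporter cells; numbers are from one replicate; inactives centre near -14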
Bead autofluor: flagged as autofluorescent in microsphere protease counterscreen; compound autofluorescence counterscreen, microsphere flow cytometry; stronger effect = higher value; fluorescence intensity (concentration not given with the values); 360,000 tested, 3.1% active;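 active = at least 3 SD above the mean of all compounds, about 16000 in these data; inconclusive = too few beads counted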;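 also: 100 nL of 1 mM stock went into each well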
Sa ugtP lethal: kills S. aureus RN4220 lacking UgtP; 330,000 tested, 0.54% active; growth inhibition, % (no concentration beside the values); S. aureus RN4220 ugtP deletion, OD600 growth, 16 h; some inactives read as strong as hits;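 active = z-score under -3 and OD600 up to 0.15 on both plates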;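 also: plate controls were untreated wells for no effect and antibiotic for full effect; wells of about 80 µL received 100 nL stock; the first replicate is given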
RN4220 kill: S. aureus RN4220 growth inhibition; inhibition, % (test concentration not listed); 330,000 tested, 0.33% active; OD600, 16 h;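 active = z-score of -3 or lower and OD600 up to 0.18 on both plates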;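 also: plate controls were untreated cells for no effect and reference antibiotic for full effect; stock transfer was 100 nL into about 80 µL; one replicate is shown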
BJeLR viability: BJeLR cell viability loss | BJeLR (HRASV12) viability, CellTiter-Glo ATP luminescence, 48 h; reference of the scale not given here | inhibition, % (no concentration beside the values) | 300,000 tested, 0.17% active;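 active = replicate mean above 50%; inconclusive = above 50% but judged a plate artefact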;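 also: 50 nL library stock added to about 25 µL; numbers are from one replicate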
Mtb hypoxia rep growth: also measured in Mtb hypoxia rep; calls as there; growth inhibition, %; measured here: M. tuberculosis growth (absorbance);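 0% = vehicle and 100% = reference antibiotic; read after six days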
Starred values were filed as active, the others as inactive; ? = inconclusive; · = no result given.

SMILES,Mtb hypoxia rep,Mtb hypoxia rep growth,PrP UTR inh,Bead autofluor,Sa ugtP lethal,RN4220 kill,BJeLR viability
O=C(C1CC=CCC1)N1CCN(C(=O)C2CC=CCC2)CC1 (stereo not given),·,·,-19,2989,6,0.3,0
Cc1ccc(C)c(N2CCN(C(=O)CN3C(=O)c4ccccc4C3=O)CC2)c1,1,6,-15,10569,0,-0.7,0
O=C(Nc1nc(-c2cccc([N+](=O)[O-])c2)cs1)c1cccc([N+](=O)[O-])c1C(=O)O,-1,9,-13,4512,8,4.7,0
COc1ccc(OC)c2sc(N3CCN(C(=O)c4ccc([N+](=O)[O-])s4)CC3)nc12,·,·,-1,2961,-3,5.2,-6
COCCCNCC(=O)Nc1ccc(OC(F)(F)F)cc1,-9,6,-9,2885,3,5.6,0
O=C(O)c1ccc(NN=C2CCSc3ccc(F)cc32)cc1,4,3,·,·,-5,6.2,·
CC1CCN(S(=O)(=O)CCNC(=O)c2ccccc2)CC1,·,·,1,5806,·,·,16
CCN1CCCc2cc(CN(CCN3CCOCC3)C(=S)Nc3cccc(Cl)c3)ccc21,-16,-9,-17,4645,-2,-1.6,-5
CCC(=O)Nc1ccc(/C(C)=N\NC(=O)c2ccc(C)s2)cc1,·,·,-8,4552,·,·,4
CC(=O)Nc1ccc(/C=N/NC(=O)c2cccs2)cc1,·,·,-56,3354,·,·,-11
CC(C)CN1C(=O)c2ccc(C(=O)Nc3nccs3)cc2C1=O,2,0,-18,2492,16,25,-2
CN(C)CCCOC(=O)COc1ccc(Br)cc1,-3,1,-20,4173,5,4.5,-5
CCOc1cccc2cc(C(=O)N3CC(C)OC(C)C3)c(=O)oc12 (stereo not given),14,10,-2,3050,14,6.7,1
COc1ccc(-c2nnc(SCC(=O)N3CCC(Cc4ccccc4)CC3)o2)cc1OC,13,14,-28,22436*,-2,6.0,4
COc1ccc(N2CCN(C(=O)C(Cc3ccccc3)n3cccc3)CC2)cc1 (stereo not given),4,9,-15,6469,4,-1.4,0
Cc1ccc(C)c(NC(=S)N2CCN(Cc3ccccc3)CC2)c1,13,13,-9,2075,-1,1.5,-6
COc1ccc(-c2ncc3ccccn23)cc1OC,9,5,-28,2757,-8,9.9,2
O=S(=O)(c1cccs1)N1CCC(CO)(Cc2cccc(F)c2)CC1,3,-3,-34,4282,1,5.4,6
COc1cc(C=O)ccc1OCCOCCOc1c(C)cc(Cl)cc1Cl,·,·,-16,4170,24,-4.9,-1
CN1CCN(C(=O)COc2ccc(Oc3ccccc3)cc2)CC1,1,1,-10,4790,0,1.2,7
CCN(CC)S(=O)(=O)c1ccc(N2CCOCC2)c(NC(=O)c2cccc3c(=O)c(C)c(-c4ccccc4)oc23)c1,-10,-7,-27,4654,-6,-0.6,-4
COc1ccc(/C=N/NC(=O)Cn2cnc3ccccc3c2=O)cc1OC,·,·,-19,8036,·,·,1
O=C(CCS(=O)(=O)c1ccc(F)cc1)Nc1ccc(N2CCN(Cc3ccccc3)CC2)cc1,12,12,-18,8065,1,-1.0,·
COc1cccc(NC(=O)c2ccc(-c3ccccc3[N+](=O)[O-])o2)c1,5,-1,-36,3338,1,6.4,-2
C=CCn1c(SCc2ccccc2)nc(O)cc1=O,·,·,-19,4153,1,-1.5,2

Single records, as listed above. Values in the order: Mtb hypoxia rep	Mtb hypoxia rep growth	PrP UTR inh	Bead autofluor	Sa ugtP lethal	RN4220 kill	BJeLR viability
Results for COc1ccc(N2CCN(C(=O)C(Cc3ccccc3)n3cccc3)CC2)cc1 (stereo not given) → 4	9	-15	6469	4	-1.4	0
Results for C=CCn1c(SCc2ccccc2)nc(O)cc1=O → ·	·	-19	4153	1	-1.5	2

Later entries:
SMILES,Mtb hypoxia rep,Mtb hypoxia rep growth,PrP UTR inh,Bead autofluor,Sa ugtP lethal,RN4220 kill,BJeLR viability
O=C1CC(C(=O)O)S/C(=N\NC(=O)c2ccccc2)N1 (stereo not given),-1,-2,·,10554,-2,3.6,8
Cc1ccccc1OCC(=O)NN=Cc1ccncc1,7,3,·,·,4,2.8,·
COc1ccc(C(NC=O)c2cc(OC)c(OC)cc2Br)cc1OC (stereo not given),8,-2,-33,9449,0,0.6,-20
FC(F)(F)c1cc(-c2ccccc2)nc2nc(N3CCOCC3)sc12,14,15,6,4598,-9,1.2,-9
Cc1ccccc1C(=O)N1CCC(C(=O)NC(C)c2ccc(-n3ccnc3)cc2)CC1 (stereo not given),8,-17,-11,5798,8,0.6,-7
CSc1nc(NCCN(C)C)c2sc3nc(-c4ccco4)c4c(c3c2n1)CCC4,·,·,-1,4150,-14,-5.9,·
CC(=O)c1cccc(S(=O)(=O)Nc2cccc(S(=O)(=O)NC3=NCCC3)c2)c1,8,-4,-25,1974,1,3.9,2
O=C(CN1C(=O)COc2ccccc21)N(Cc1ccc2c(c1)OCO2)CC1CCCO1 (stereo not given),7,-3,-11,11120,4,3.3,6
CC1(C)Cc2nc3sc4c(SCC(=O)NC(c5ccccc5)c5ccccc5)ncnc4c3cc2CO1,9,-2,-12,·,-1,-3.0,4
Cc1ccc(C)c(NC(=O)CSc2nnc([C@@H](N)Cc3ccccc3)o2)c1,-5,-5,-33,24097*,-5,-1.2,1
O=C(Nc1ccc(C2CC2(Cl)Cl)cc1)c1cccc([N+](=O)[O-])c1 (stereo not given),-1,-3,-24,3029,-3,-4.2,-4
CCCCOc1cc(NCc2ccccc2)c2ncn(C(C)C)c2c1,-5,-3,-5,5119,-35,-5.6,·
O=S(=O)(c1cccc2ccccc12)N1CCSC1,12,8,-24,2452,6,-3.7,·
Cn1c(=O)c2c(ncn2CC(=O)Nc2nc3ccc(F)cc3s2)n(C)c1=O,·,·,-21,2891,1,-0.2,3
S=c1[nH]nc(-c2cc(-c3ccccc3)n[nH]2)n1/N=C/c1c2ccccc2cc2ccccc12,·,·,-8,4303,·,·,-10
NNC(=O)c1nc[nH]c1C(=O)Nc1ccccn1,·,·,53,3364,·,·,10
Cc1ccc(NC(=O)C2=CC(c3ccc(C)cc3)=NS(=O)(=O)N2C)cc1,0,-3,-12,6129,-4,-1.9,3
CCc1cccc(OCCCCNCCOC)c1,22,6,-9,2944,3,7.4,4
COC(=O)Oc1nsnc1N1CCOCC1,13,7,-35,4207,1,5.5,0
COc1ccc(CCNS(=O)(=O)c2cccc(F)c2)cc1OC,3,0,8,15520,3,2.1,·
Cn1c(=O)c(-c2cc(=O)[nH][nH]2)c(O)c2ccccc21,6,10,-20,4079,6,3.7,6
COc1ccc(C(=O)NC2CCCc3c2cnn3-c2ccc(C)c(C)c2)c(OC)c1OC (stereo not given),·,·,-16,5622,·,·,1
O=C(Nc1ccc(Cl)c(S(=O)(=O)N2CCOCC2)c1)c1cc(-c2ccccn2)nc2ccccc12,2,4,-10,4116,2,-11,-9
O=S(=O)(NCCNc1ncc(C(F)(F)F)cc1Cl)C(F)(F)F,3,6,-26,2256,34,53,2
Cc1[nH]c2ccccc2c1C(=O)COc1ccccc1,5,-3,-11,2615,5,6.5,-8

(next part)
SMILES,Mtb hypoxia rep,Mtb hypoxia rep growth,PrP UTR inh,Bead autofluor,Sa ugtP lethal,RN4220 kill,BJeLR viability
O=C(Cc1ccccc1)NCCCN1CCN(CCCNC(=O)Cc2ccccc2)CC1,-1,12,-22,9179,1,1.1,-1
CCCCN(C(=O)CCC(=O)Nc1cc(C)on1)C(C(=O)NC1CCCC1)c1cccc(OC)c1 (stereo not given),-4,-7,17,3033,0,2.1,-16
CC1CCCCC12NC(=O)N(CC(=O)NC(=O)NCc1ccco1)C2=O (stereo not given),-4,0,-7,22867*,-1,4.1,-11
O=C(CC1C(=O)NCCN1C(=O)Nc1ccc(F)cc1)Nc1ccc(F)cc1 (stereo not given),11,2,-43,3671,-2,0.8,10
CC(=O)N1CCC(N(C(=O)Nc2ccc(Cl)cc2)C(C)C)CC1,5,1,17,4612,5,0.7,-3
C/C=C(\C)C(=O)NCCN1C2=NC[C@H](Cc3ccccc3)N2C[C@@H]1Cc1ccc(OC)cc1,0,12,-6,3769,-8,-7.8,9
Cc1ccc(-c2nc(SCC(=O)c3c(N)n(C)c(=O)n(C)c3=O)n[nH]2)cc1,4,3,-14,3379,2,2.9,-6
NC(=O)Nc1ccccc1C(=O)N1CCC(O)(c2ccc(Cl)cc2)CC1,-2,-1,-3,7421,-5,1.3,3
Cc1ccc(-c2nnn(CC(=O)N(c3ccc(F)cc3)C(C(=O)NC(C)(C)C)c3ccco3)n2)o1 (stereo not given),·,·,-22,2574,2,1.6,3
COc1ccc(C(=O)NCC(=O)N/N=C/c2cn[nH]c2-c2ccccc2)cc1,·,·,-7,2004,·,·,-7
O=C(Nc1ccc(S(=O)(=O)N2CCCCC2)cc1)c1cccnc1Cl,0,0,-1,?,1,1.7,-9
O=C1NC(=O)N(C2CCCCC2)CC1Br (stereo not given),·,·,-24,3994,7,4.1,·
CSc1nnc(NC(=O)c2nc(S(=O)(=O)Cc3cccc(C)c3)ncc2Cl)s1,·,·,-7,5318,·,·,7
Cc1cc(=O)n(Cc2ccccc2)c2c(C)cccc12,11,-1,-30,3345,59,-3.4,3
COc1ccc(C2CC(c3cccs3)n3nc(N)nc3N2)cc1 (stereo not given),·,·,-2,4700,-2,3.7,-4
Cc1ccccc1C(=O)NNC(=O)c1cc(S(=O)(=O)N2CCOCC2)ccc1C,-2,-3,-9,3425,-3,-6.0,·
Cc1ccc(S(=O)(=O)Nc2nc(-c3ccccc3)cs2)cc1,10,-5,-14,3606,4,0.2,-5
CCOc1ccccc1NC(=O)CCC(=O)Nc1nnc(C2CCCCC2)s1,-10,4,-4,5947,-3,-4.5,-1
COc1ccc(-c2cc(C(F)F)n3ncc(C(=O)Nc4cnn(Cc5ccccc5)c4)c3n2)cc1,·,·,·,·,-2,3.1,8
CN(C)CCCNC(=O)c1ccc(-c2ccccc2)cc1,·,·,1,4716,6,-0.7,-2
COc1ccc(Cl)cc1NC(=O)CN(C)C(=O)c1ccc(C)s1,14,5,-9,6108,3,0.5,-4
COc1ccc(CNC(=O)CSc2ccsc2[N+](=O)[O-])cc1,6,11,-68,2741,0,-0.4,-5
Cc1noc(C)c1COc1cccc(C(=O)NCc2cccc(Cl)c2)c1,·,·,-29,5301,7,-2.8,0
COc1ccc(C(=O)NN2CCOCC2)cc1[N+](=O)[O-],-6,-13,-11,·,18,5.5,-5
O=C(CCn1c(=O)c2ccccc2n(Cc2ccccc2)c1=O)NCc1ccc2c(c1)OCO2,-91,-17,-20,3954,-4,4.6,3

(listing goes on)
SMILES,Mtb hypoxia rep,Mtb hypoxia rep growth,PrP UTR inh,Bead autofluor,Sa ugtP lethal,RN4220 kill,BJeLR viability
O=C(COc1ccc(Cl)cc1)OCc1csc(Nc2ccccc2)n1,-2,4,-15,2528,-8,9.9,-4
COc1ccc(/C=C/C(=O)N(C)Cc2cccs2)cc1S(=O)(=O)N1CCOCC1,15,-1,1,4562,2,3.8,-10
Cc1ccccc1NC(=O)/C=C/c1cccs1,12,3,-103,3968,9,7.6,2
Cc1c(Cl)cccc1NC(=O)Cc1cccs1,-2,2,-29,3351,-1,2.5,-10
Cc1cc(C(=O)NCC(C)(C)N2CCOCC2)c(C)o1,6,5,6,4502,9,3.8,1
COc1cccc(-c2c(C(=O)NN=C(C)c3cccnc3)nnn2-c2nonc2N)c1,5,0,·,·,-2,5.1,·
CCCCNC(=O)CSc1nc(Cc2ccccc2)nc2ccccc12,11,9,-15,3516,-6,-0.8,9
C=CCn1c(N2CCN(c3ccc(OC)cc3)CC2)nc2c1c(=O)[nH]c(=O)n2C,-1,5,-7,4110,5,12,2
COc1ccc(C2=NN(C(=O)CCC(=O)O)C(c3ccccc3OC)C2)cc1 (stereo not given),-4,8,3,4020,-2,0.4,1
CCc1ccc(C(=O)Nc2cccnc2Oc2ccc(Cl)cc2)cc1,6,15,-16,4523,38,-1.2,-3
O=C(NCC1CCCO1)c1ccc(Cl)c(S(=O)(=O)N2CCOCC2)c1 (stereo not given),-6,7,-1,3565,6,-0.8,-6
CC(C)c1nnc(NC(=O)CCC(=O)N2CCN(c3ccccn3)CC2)s1,-3,1,-24,9614,6,6.3,-10
CC(=O)Nc1ccc(-c2nnc(SCC(=O)n3c4c(c5ccccc53)CCCC4)n2C)cc1,-6,-3,-22,9744,7,2.9,4
